Mtb H37Rv: Mycobacterium tuberculosis H37Rv growth inhibition, putative kinase inhibitor library, confirmatory dose response (AID 2842); inhibition, % at 10 µg/mL, or IC90 in µg/mL where a hit was titrated; 24,000 tested, 5.2% active; M. tuberculosis H37Rv growth inhibition; higher % means a stronger effect; some inactives read as strong as hits;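 active = confirmed in a dose series; about a fifth of its hits are not listed in these tables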;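 note: bacteria incubated one week before Alamar blue readout; 0% = bacteria only wells and 100% = bacteria with high antibiotic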
* hit, by the source's call.

SMILES	Mtb H37Rv
CCOC(=O)c1ccc(NC(=O)CSc2nc(CC)nc3c2c(=O)n(C)c(=O)n3C)cc1	-10%
O=C(c1cccs1)N1N=C(c2ccco2)CC1c1ccco1 (stereo not drawn)	-4%
O=C(O)c1c[nH]c2ccc(S(=O)(=O)N3CCCCC3c3cccnc3)cc2c1=O (stereo not drawn)	-16%
COc1cc([N+](=O)[O-])cc2sc(NC(=O)c3ccc(N4C(=O)CCC4=O)cc3)nc12	-14%
Cc1cnc(=O)[nH]c1SCc1cccc(C(F)(F)F)c1	-7%
COc1ccc(C)cc1NC(=O)CSc1nnc2ccc(-c3cccnc3)nn12	0%
N#Cc1ccc(C(=O)Nc2nc(-c3ccccc3)cs2)cc1	6%
COc1ccc(C(=O)Nc2cccc(-c3ccc4nncn4n3)c2)cc1OC	-3%
COc1ccc(C(=O)CSc2nc(C)cc(=O)[nH]2)cc1OC	-17%
Cc1ccc(C(=O)Nc2ccccc2-c2nc3ccccc3[nH]c2=O)cc1[N+](=O)[O-]	-5%
COc1ccc(OC)c(-c2nnc(NC(=O)COc3ccc4ccccc4c3)s2)c1	-4%
N#Cc1c(NC(=O)CS(=O)(=O)c2ccccc2)sc2c1CCCCC2	-2%
Cc1cc(C)nc(NN=C2c3ccccc3-c3ccccc32)n1	-2%
CCCn1c(NCCO)nc2c1c(=O)[nH]c(=O)n2C	8%
O=C1NC2=C(C(=O)N(CCO)C2)C(c2ccccc2)N1 (stereo not drawn)	-11%
O=C(CSc1nc2c(c(=O)n1-c1ccc([N+](=O)[O-])cc1)SCC2)Nc1ccc2c(c1)OCO2	-7%
S=c1[nH]nc(-c2cccc(Br)c2)n1-c1ccccc1	15%
Cn1c(=O)c2c(SCC(=O)N3CCCC3)nc(-c3ccco3)nc2n(C)c1=O	2%
CC(=O)c1ccc(C(=O)Nc2nc3ccc4ccccc4c3s2)cc1	5%
O=C(CSc1nc2[nH]ncc2c(=O)[nH]1)Nc1ccc2c(c1)OCO2	-7%
COc1cc2c(=O)c(C(=O)c3ccc(Cl)cc3)cn(Cc3ccc(Cl)cc3)c2cc1OC	-6%
CCS(=O)(=O)c1cccc(C(=O)Nc2ccccc2-c2nc3ccccc3s2)c1	10%
Cc1cccc(-c2nnc(NC(=O)c3ccc(S(=O)(=O)N4CCOCC4)cc3)s2)c1	0%
COc1cccc(-c2nnc(SCC(=O)Nc3cc(C)on3)o2)c1	3.3µg/mL*
CCn1cc(C(=O)Nc2ccc3c(c2)OCCO3)c2nn(-c3ccccc3)c(=O)c-2c1	-8%
COCCCn1c(C)c(C)n2c3c(=O)n(CCC(=O)OC)c(=O)n(C)c3nc12	-18%
COc1ccccc1NC(=O)C1=C(C)NC(SCC(N)=O)=C(C#N)C1c1ccccc1 (stereo not drawn)	-21%
CCOC(=O)c1nn(-c2ccc(Cl)cc2)c(=O)c2c(NC(=O)c3cccs3)scc12	23%
Cc1cccc(CSC2=NCCN2C(=O)c2cccs2)c1	26%
CCOc1ccccc1NC(=O)c1oc2ccccc2c1NC(=O)c1ccccc1C	10%
NC(=O)c1c(NC(=O)c2ccc([N+](=O)[O-])o2)sc2c1CCCCC2	0.52µg/mL*
O=C(CSc1nnc(CNC(=O)c2cccs2)o1)Nc1nccs1	0%
CCOc1ccc(C(=O)Nc2nnc(-c3cc(C)ccc3C)o2)cc1	83%
COc1ccc(Cn2cc(C(=O)c3ccc(OC)cc3)c(=O)c3cc(C)ccc32)cc1	64%
Cc1ccc(CC2SC(=Nc3ccccc3)NC2=O)cc1 (stereo not drawn)	29%
COC(=O)c1sc(NC(=O)CCl)c(C(=O)OC)c1C	43%
OCCOCCNc1nc(Nc2cccc(F)c2)nc2c1cnn2-c1ccccc1	4.9µg/mL*
O=C1CCc2cc(NS(=O)(=O)c3ccc(Cl)cc3)cc3c2N1CC3	-1%
CN(CC(=O)Nc1nccs1)S(=O)(=O)c1cccs1	2%
COc1ccc(Cl)cc1C(=O)Nc1nnc(-c2ccc(F)cc2)s1	0%
NC(=O)c1c(NC(=O)c2cc3n(n2)C(C(F)(F)F)CC(c2ccco2)N3)sc2c1CCC2 (stereo not drawn)	-6%
CCOC(=O)c1cnc2ccc(OCC)cc2c1Nc1cccc(Cl)c1C	-5%
Cc1cc(OC(=O)CC(C)(C)C)c([N+](=O)[O-])c(=O)[nH]1	5%
CN1CCc2c(sc(NC(=O)c3cc(Cl)cc(Cl)c3)c2C(N)=O)C1	0%
CCOC(=O)c1nn(-c2ccc(F)cc2)c(=O)c2c(NC(=O)/C=C/c3cc(OC)c(OC)c(OC)c3)scc12	-12%
CCCC(=O)N1CCN(c2ccc(N3CCOCC3)nn2)CC1	3%
O=C(Cc1ccccc1)Nc1c(C(=O)Nc2ccc3c(c2)OCO3)oc2ccccc12	4%
CCc1nnc(NC(=O)Cc2cccc3ccccc23)s1	5%
Cc1ccc(-c2nc3cccnc3s2)cc1NS(=O)(=O)c1ccc(Cl)cc1	-9%
NC(=O)Cn1c2ccc([N+](=O)[O-])cc2c2cc([N+](=O)[O-])ccc21	11%
N#Cc1ccc(C(=O)Nc2ccc(N=Nc3ccccc3)cc2)cc1	-11%
CC1CCN(c2nc3c(c(=O)n(C)c(=O)n3C)n2CCSc2nc3ccccc3s2)CC1	18%
Cn1c(=O)c2c(nc(N3CCC(Cc4ccccc4)CC3)n2CCSc2ncccn2)n(C)c1=O	4%
CCCCOc1cccc(C(=O)Nc2nnc(-c3cc(Cl)ccc3Cl)o2)c1	13µg/mL*
NC(=O)CSc1nnc(CNC(=O)c2cccc(C(F)(F)F)c2)o1	-10%
Nc1nc(O)c(C2=c3cc(Br)ccc3=NC2=O)s1	-3%
O=C(c1ccco1)N1CCN=C1SCc1ccccc1	-1%
O=C(CSc1nnc(CNC(=O)c2c(F)cccc2F)o1)NCc1ccc(F)cc1	7%
NC(=O)COC(=O)c1cccc2c1-c1ccccc1C2=O	1%
CC(C)CCn1c(N2CCN(Cc3ccccc3Cl)CC2)nc2c1c(=O)[nH]c(=O)n2C	-2%

(listing goes on)
SMILES	Mtb H37Rv
Cc1ccc(NC(=O)CC2Nc3ccccc3NC2=O)c(Br)c1 (stereo not drawn)	52%
CNc1nc2c(c(=O)[nH]c(=O)n2C)n1Cc1ccc(F)cc1	-6%
O=C(CSc1ncnc2c1oc1ccccc12)Nc1ccc(Cl)c(Cl)c1	3%
O=C(NNc1nc2c(Cl)cccc2s1)c1nc2ccccc2s1	46%
Cn1ncc2c(NCCO)nc(Nc3ccc(F)cc3)nc21	1%
CCOc1ccc(-c2csc(NC(=O)c3cccc(N4C(=O)CCC4=O)c3)n2)cc1	2%
COC(=O)c1ccc(NC(=O)NC2CC(=O)N(c3ccc(OC)c(OC)c3)C2)cc1 (stereo not drawn)	-18%
Cc1ccc(NC(=O)c2sc3ncn(CC(=O)N4CCOCC4)c(=O)c3c2C)c(C)c1	4%
O=C(/C=C/c1ccccc1)Nc1c(C(=O)Nc2ccc3c(c2)OCCO3)oc2ccccc12	15%
CC1CCCN(c2ncnc(N)c2[N+](=O)[O-])C1 (stereo not drawn)	-10%
COc1ccc(-c2ccc(=O)n(CCNC(=O)COc3ccc(Cl)cc3)n2)cc1	-2%
Cc1ccc(NC(=O)CSc2nc(N)c(NC(=O)c3ccc(Br)cc3)c(=O)[nH]2)c(C)c1	-13%
CCCC(=O)Nc1c(C(=O)Nc2ccc(OC)cc2)oc2ccccc12	5%
CN(CC(O)Cn1c2ccccc2c2ccccc21)S(=O)(=O)c1ccc(Cl)cc1 (stereo not drawn)	16%
COc1ccc(-c2nnc3ccc(SCC(=O)N4CCc5ccccc54)nn23)cc1OC	-1%
O=c1[nH]c(SCc2ccccc2F)nc2c1cnn2-c1ccc(F)cc1	4%
COc1ccc2cc(CCNC(=O)c3c(F)cccc3F)c(=O)[nH]c2c1	7%
Cc1c(/C(O)=C2\C(=O)C(=O)N(CCN(C)C)C2c2ccccc2F)cnn1-c1ccccc1 (stereo not drawn)	-11%
Cn1c(=O)c2c(nc(SCCO)n2Cc2ccc(Cl)cc2)n(C)c1=O	18%
Cc1ccc(NC(=O)c2sc3nc4c(c(-c5ccco5)c3c2N)CCCCC4)cc1	10%
CSc1cccc(-c2nnc(NC(=O)c3cccc(N4C(=O)CCC4=O)c3)o2)c1	70%
CCOc1ccc(N2C(=O)C3N=NN(CC(=O)Nc4cc(Cl)ccc4C)C3C2=O)cc1 (stereo not drawn)	-12%
CCCNC(=O)C(=O)Nc1cc2c3c(c1)CCC(=O)N3CCC2	6%
CCN(CC)S(=O)(=O)c1ccc(C(=O)Nc2nnc(-c3ccc(F)cc3)s2)cc1	2%
Cc1ccc(-n2c(=O)[nH]c3c(C(N)=O)nc(-c4ccc(F)cc4)nc32)cc1C	-12%
CC(=O)c1sc(NC(=O)c2ccc(C)cc2)nc1-c1ccccc1	7%
Cc1cc2cc(CCNC(=O)c3ccccc3)c(=O)[nH]c2cc1C	2%
O=C(CCN1C(=O)c2ccccc2C1=O)Nc1ncn[nH]1	7%
O=C1N/C(=N/N=C/c2ccccc2)SC1Cc1cccc(Cl)c1 (stereo not drawn)	-8%
COc1ccc(Cl)cc1NC(=O)CSc1ccc2nnc(-c3ccncc3)n2n1	-3%

Reprinted at random: 6 records from the list, in no set order.
SMILES	Mtb H37Rv
Cc1c(/C(O)=C2\C(=O)C(=O)N(CCN(C)C)C2c2ccccc2F)cnn1-c1ccccc1 (stereo not drawn)	-11%
Cc1cc2cc(CCNC(=O)c3ccccc3)c(=O)[nH]c2cc1C	2%
O=c1[nH]c(SCc2ccccc2F)nc2c1cnn2-c1ccc(F)cc1	4%
CC(=O)c1sc(NC(=O)c2ccc(C)cc2)nc1-c1ccccc1	7%
CCOc1ccc(N2C(=O)C3N=NN(CC(=O)Nc4cc(Cl)ccc4C)C3C2=O)cc1 (stereo not drawn)	-12%
O=C(CCN1C(=O)c2ccccc2C1=O)Nc1ncn[nH]1	7%

A second format for some results above:
| smiles | Mtb H37Rv |
| --- | --- |
| CC(=O)c1sc(NC(=O)c2ccc(C)cc2)nc1-c1ccccc1 | 7% |
| Cc1c(/C(O)=C2\C(=O)C(=O)N(CCN(C)C)C2c2ccccc2F)cnn1-c1ccccc1 (stereo not drawn) | -11% |
| CCCNC(=O)C(=O)Nc1cc2c3c(c1)CCC(=O)N3CCC2 | 6% |

New compounds follow:
SMILES	Mtb H37Rv
O=C(CSC1=NC2(CCCC2)N=C1c1ccccc1)Nc1ccc2c(c1)OCCO2	-2%
N#CCCSc1ccccc1NC(=O)c1ccc(C#N)cc1	-4%
Cc1cc(C)cc(Nc2ncnc3nc[nH]c23)c1	13%
C#CCn1c(=NC(=O)c2cc3ccccc3oc2=O)sc2cc3c(cc21)OCCO3	-5%
Cc1ccc(C(CNC(=O)C(=O)Nc2cccc(Cl)c2C)N2CCN(C)CC2)cc1 (stereo not drawn)	-8%
O=C(COc1ccc(Cl)cc1Cl)Nc1nc2c(cc3c4c(cccc42)CC3)s1	0%
COc1cc(Cl)c(C)cc1-n1ccnc(NCCc2ccccc2)c1=O	30%
CCCCC(=O)Nc1c(C(=O)Nc2cccc(Cl)c2)oc2ccccc12	-4%
O=C(Nc1ccc(O)c(-c2nc3ccccc3s2)c1)c1ccccc1Oc1ccccc1	16%
CC(=O)Nc1ccc(NC(=O)CSc2ccc(-c3ccc4c(c3)OCO4)nn2)cc1	-9%
O=C1CC2(CCN(C(=O)COc3ccc(Cl)cc3)CC2)Oc2ccccc21	-2%
COc1ccc(OC)c2[nH]c(=O)c(CCNC(=O)c3ccccc3Br)cc12	9%
C/C(=N\NC(=O)CSc1nc2ccccc2[nH]1)c1cccs1	-11%
Cc1cc(C)cc(N2C(=O)N(c3ccc(F)cc3)C3CS(=O)(=O)CC32)c1 (stereo not drawn)	-4%
Cc1ccc(NC(=O)CSc2nnc3ccc(-c4cccc([N+](=O)[O-])c4)nn23)c(C)c1	-1%
COc1cccc(-c2csc(NC(=O)c3ccc(C#N)cc3)n2)c1	2%
CCOC(=O)N1CCN(C(c2cccc(Br)c2)c2sc3nc(C)nn3c2O)CC1 (stereo not drawn)	0%
O=c1cc(CSc2n[nH]c(=O)[nH]c2=O)[nH][nH]1	-3%
CCOC(=O)c1ccc(NC(=O)CC2SC(N)=NC2=O)cc1 (stereo not drawn)	5%
Cc1ccc(C(=O)Nc2cc(=O)n(C)c(=O)n2C)cc1	-2%
O=C(Nc1ccccn1)NC1CC(=O)N(c2ccc3c(c2)OCCO3)C1 (stereo not drawn)	16%
CNC(=O)CSc1nnc(NC(=O)NC(C)(C)C)s1	-15%
O=C(Nc1c(C(=O)Nc2ccc3c(c2)OCO3)oc2ccccc12)c1cc([N+](=O)[O-])ccc1Cl	18%
Cc1cccc(NC(=O)CSc2nnc(Cn3c(=O)sc4ccccc43)n2C)c1	-3%
Cc1ccccc1NC(=O)CSC1=NS(=O)(=O)c2ccccc2N1	-14%
COc1cccc(C(=O)Nc2c(C(=O)Nc3ccc(C)c(C)c3)oc3ccccc23)c1OC	-5%
CCN1CCc2c(sc(NC(=O)c3ccc(S(=O)(=O)N4CC(C)OC(C)C4)cc3)c2C(N)=O)C1 (stereo not drawn)	-12%
CCCCOC(=O)c1ccc(Nc2ncnc3nc[nH]c23)cc1	-3%
COC(=O)c1ccc(C2c3c(oc4ccccc4c3=O)C(=O)N2Cc2cccnc2)cc1 (stereo not drawn)	-7%
CCN(CC)CCCNc1ncnc(N)c1[N+](=O)[O-]	-1%
CCOC(=O)c1c(NC(=O)Cc2cccc3ccccc23)sc2c1CC(C)(C)NC2(C)C	2.1µg/mL*
O=C(Nc1c(C(=O)Nc2ccc([N+](=O)[O-])cc2)oc2ccccc12)c1ccc(F)cc1	49%
CCOC(=O)c1nn(-c2ccccc2)c(=O)c2c(NC(=O)c3ccccc3[N+](=O)[O-])scc12	3%

Source: PubChem BioAssay

Not all compounds are listed; count on the stated rates, not on these rows.
